WNV NS2B-NS3 inh: blocks West Nile virus NS2B-NS3 protease activity; actives 0.18% (n = 65,000); P06935; AID 577; z-score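 (tested at a level between 10 and 100 µM)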; WNV NS2B-NS3 protease, fluorogenic substrate Ex360/Em465; active compounds read low;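 active = z-score at -3 or under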;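 note: score is relative to mean and spread of the compound wells of a plate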
Target sequence (P06935 1371-1501 limits assumed): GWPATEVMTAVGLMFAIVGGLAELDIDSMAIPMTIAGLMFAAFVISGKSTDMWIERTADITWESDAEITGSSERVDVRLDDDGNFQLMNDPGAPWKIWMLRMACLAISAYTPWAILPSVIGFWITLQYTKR
Target sequence (P06935 1502-1679 limits assumed): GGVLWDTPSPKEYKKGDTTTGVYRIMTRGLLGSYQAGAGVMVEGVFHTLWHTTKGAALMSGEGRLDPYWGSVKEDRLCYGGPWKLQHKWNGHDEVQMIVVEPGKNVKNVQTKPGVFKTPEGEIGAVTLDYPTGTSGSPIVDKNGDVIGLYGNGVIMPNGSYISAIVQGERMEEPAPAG
Hsc70: small molecules displacing fluorescent ligand from Hsc70 – biochemical, fluorescence polarization, primary screen (AID 568) | Hsc70 fluorescence polarization, probe displacement; higher % means a stronger effect; strong numbers were not always called active | displacement, % at 20 µM; hits with a dose series show IC50 in µM | 83,000 tested, under 10 active;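 active = displacement above 50% without optical interference and an IC50 on retest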;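 note: ATPase domain with a fluorescein-tagged ATP probe; 0% = vehicle and 100% = excess ADP; read after one hour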
MT1-MMP promoter: inhibitors of MT1-MMP promoter transcription, cell-based, luciferase reporter, luminescence (AID 618); MT1-MMP promoter luciferase reporter cells, luminescence; calls from a first round at 10 µM; hits with a dose series show EC50 in µM; actives 0.62% (n = 87,000);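 active = over half of the reporter light lost at 10 µM or EC50 under 50 µM; inactive = the rest and hits that failed the dose series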;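 note: actives suppress MT1-MMP promoter-driven transcription so potencies describe inhibitors; HT1080 fibrosarcoma cells; overnight exposure; toxic or luciferase-blocking compounds were not removed from the actives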
* marks the source's active call; other numbers are inactive results; i = inactive; · = not tested or not shown. Compounds were not picked by outcome, and some 0.8% of all compounds hit somewhere here.

SMILES | WNV NS2B-NS3 inh | Hsc70 | MT1-MMP promoter
CCOc1ccc(C(=O)C(c2ccccc2)N2CCOCC2)cc1 (stereo not given) | 1 | -1.2% | i
O=C(NC1CCS(=O)(=O)C1)c1cccc(S(=O)(=O)N2CCOCC2)c1 (stereo not given) | -0.44 | 6.0% | i
CN(C)S(=O)(=O)c1ccc(S(=O)(=O)NC2CCOC(C)(C)C2)cc1 (stereo not given) | · | 4.1% | i
COc1cccc(N2CCN(C(c3ccccn3)c3nnnn3C(C)(C)C)CC2)c1 (stereo not given) | · | -1.5% | i
COc1ccc(Cl)cc1NC(=O)CN1CCC(n2nnc3ccccc32)CC1 | -0.77 | -4.1% | i
CCN(c1ccccc1)S(=O)(=O)c1ccc(F)cc1C | -0.8 | 5.5% | i
COc1cccc(-c2cn3nc(C)c(C)nc3n2)c1 | -0.81 | -11% | i
CCN(CC)C(=O)c1cccc(-c2ccc(OC)cc2)c1 | -0.42 | -14% | i
COc1ccc(NC(=O)CSc2c(C)nn(-c3nnc(C)c(=O)[nH]3)c2C)cc1 | 0.06 | 3.9% | i
CCOC(=O)CC1C(=O)NCCN1C(=O)c1cc2c(=O)n3cccc(C)c3nc2s1 (stereo not given) | 2.7 | 3.2% | i
COc1cc(C)nc(N2CCCC(C(=O)Nc3cc(Cl)ccc3OC)C2)n1 (stereo not given) | · | 3.7% | i
Nc1nnc(CCOc2ccccc2Cl)s1 | · | 3.2% | i
COc1ccc(NC(=O)CN2CC(c3ccccc3)CC2=O)cc1OC (stereo not given) | 0.74 | 1.0% | i
Cn1c(NC(=O)c2ccccc2)c(-c2ccccn2)c(=O)c2ccccc21 | · | -5.2% | i
C=CCn1c(Sc2nncn2C)nc2c1c(=O)[nH]c(=O)n2C | 0.09 | 1.2% | i
CC(C)C(CC(=O)N1CCCCC1)C1CCOC(C)(C)C1 (stereo not given) | · | 2.3% | i
O=C(NCCN1CCOCC1)c1cc(S(=O)(=O)NCCCN2CCCC2=O)ccc1Cl | 0.92 | -1.1% | i
CCCc1cc(C(=O)Nc2sc(C)c(C)c2C(=O)OCC)no1 | -0.4 | 3.9% | i
CCn1cc(C(=O)Nc2cccc(C(=O)OC)c2)c(=O)c2ccc(C)nc21 | -6.2* | 4.8% | i
O=C1CC(N2CCCc3ccccc32)C(=O)N1c1ccccc1Cl (stereo not given) | · | 4.6% | i
CCOc1ccccc1-c1nc(-c2cc3ccccc3nc2OC)no1 | -0.48 | -27% | i
Cc1cc(Cl)c(S(=O)(=O)Nc2ccc3c(c2)OCCO3)cc1OCC(=O)NC1CCCCC1 | · | 3.4% | i
CC1CCCCN1c1nnc(NC(=O)Cn2c(=O)oc3ccccc32)s1 (stereo not given) | 1.1 | 3.9% | i
Cc1cnc(C(=O)Nc2cccc(-c3nnc4n3CCCCC4)c2)cn1 | 1.1 | 1.9% | i
CCc1nnc(NS(=O)(=O)c2ccc(NS(=O)(=O)c3ccccc3)cc2)s1 | 0.97 | 3.4% | i
C/C(=N\O)C(C)(C)NC(=O)Nc1ccc(Cl)cc1 | 0.61 | -8.1% | i
COC(=O)C1=C(CSc2nc3c(cc2C#N)CN(C)CC3)OC(N)=C(C#N)C1c1ccccc1F (stereo not given) | · | 3.7% | i
Cc1nn(C)c(C)c1S(=O)(=O)N1CCCC(C(=O)N2CCN(c3ccc(Cl)cc3)CC2)C1 (stereo not given) | 0.09 | -1.1% | i
CN(Cc1ccccc1)c1nc2c(c(=O)n(C)c(=O)n2C)n1CCSc1ncccn1 | -0.62 | -2.2% | i
O=C(O)Cn1nc(C(F)(F)F)c2c1CCC2 | 0.26 | 2.4% | i
CCOc1ccc(-c2cnc(SCC(N)=O)nc2N)cc1 | -0.09 | -3.7% | i
CCOCCn1cnc2sc(C(=O)NCC(=O)OCC)c(C)c2c1=O | -0.27 | -3.1% | i
Nn1c(SCC(=O)Nc2ccc(F)cc2F)nnc1C1CCCCC1 | -0.78 | -4.1% | i
Cc1cccc(N2CC34C=CC(O3)C(C(=O)O)C4C2=O)c1 (stereo not given) | 0.56 | -0.5% | i
CCOC(=O)N1CCN(C(=O)c2ccc3c(=O)n(-c4ccc(F)cc4)c(=S)[nH]c3c2)CC1 | · | 8.7% | i
CCOC(=O)c1[nH]c(C)c(C(=O)OC(C)C(=O)Nc2ncc(Cl)cc2Cl)c1C (stereo not given) | · | 4.4% | i
O=C(COc1ccc(S(=O)(=O)NC2CCCCC2)cc1)Nc1ccc2c(c1)OCCO2 | -0.21 | 2.3% | i
COC(=O)CN1C(=O)C2(C(C#N)=C(N)Oc3c2c(C)nn3-c2ccccc2)c2ccccc21 (stereo not given) | 0.09 | 0.6% | i
CCOc1ccc(-c2nn3c(-c4ccccc4)nnc3s2)cc1 | -0.48 | -1.0% | i
S=C(NCC1CCCO1)n1nnc2ccccc21 (stereo not given) | -0.14 | 1.9% | i

Compound profiles, as listed above. Screens in order: WNV NS2B-NS3 inh, Hsc70, MT1-MMP promoter
Entry for CCOC(=O)N1CCN(C(=O)c2ccc3c(=O)n(-c4ccc(F)cc4)c(=S)[nH]c3c2)CC1 = ·, 8.7%, i
Entry for O=C(O)Cn1nc(C(F)(F)F)c2c1CCC2 = 0.26, 2.4%, i
Entry for Cc1cccc(N2CC34C=CC(O3)C(C(=O)O)C4C2=O)c1 (stereo not given) = 0.56, -0.5%, i
Entry for Cc1cc(Cl)c(S(=O)(=O)Nc2ccc3c(c2)OCCO3)cc1OCC(=O)NC1CCCCC1 = ·, 3.4%, i
Entry for S=C(NCC1CCCO1)n1nnc2ccccc21 (stereo not given) = -0.14, 1.9%, i

Carrying on:
SMILES | WNV NS2B-NS3 inh | Hsc70 | MT1-MMP promoter
Cc1sc(NC(=O)c2ccco2)nc1-c1ccc2c(c1)CC(C)N2C(=O)C1CC1 (stereo not given) | 0.77 | -2.8% | i
O=C(NC1CCCCCC1)C1CCCN1S(=O)(=O)c1cccc2cccnc12 (stereo not given) | -0.04 | 4.9% | i
COc1cc(CCC(=O)OCc2nnc(-c3ccccc3)o2)cc(OC)c1OC | 0.08 | -3.3% | i
Cc1cc(Nc2ccccc2)n(CCO)n1 | · | -8.7% | i
O=C(c1cc2ccccc2o1)c1cccs1 | -1.8 | 1.0% | i
COc1ccc(CC(=O)Nc2nncs2)cc1OC | 0.65 | 9.0% | i
CCCCOc1nc(N)nc(-c2ccccc2)n1 | -1.7 | 3.4% | i
CCCCCOC(=O)c1c(N)n(CCOC)c2nc3ccccc3nc12 | · | -4.4% | i
CCC1CCCCN1CCCNC(=O)CC1Oc2ccccc2NC1=O (stereo not given) | 0.69 | -1.0% | i
Cc1cccc(C2c3c(n(C)c(=O)n(C)c3=O)N=C3c4ccccc4C(=O)C32)c1 (stereo not given) | -0.32 | -7.1% | i
CCC1Oc2ccccc2N(CC(=O)NCCN2CCc3ccccc3C2)C1=O (stereo not given) | -0.76 | 0.1% | i
c1ccc(-c2oc3ncnc(NCCN4CCOCC4)c3c2-c2ccccc2)cc1 | -0.64 | 6.5% | i
COc1ccccc1-n1nnnc1SCC(=O)NC1CCCC1 | -0.22 | -2.6% | i
N#Cc1cccc(NC(=O)CCC2CCCC2)c1 | 0.43 | 5.5% | i
COc1cc(NC(=O)N2CCOCC2)cc(OC)c1 | -1.7 | -8.8% | i
O=C(c1cccc(-c2nnc(-c3ccccc3)o2)c1)N1CCCCCC1 | · | 2.2% | i
CC(CCc1ccccc1)NC(=O)CSc1nc(N)cc(N)n1 (stereo not given) | -0.93 | 1.2% | i
Cc1oc(C)c2c(=O)ccc3c(c12)OC(N)=C(C#N)C3c1ccccc1 (stereo not given) | -1 | -29% | i
CCOc1ccccc1C(=O)NCC(=O)OCC(=O)NCCc1ccc(S(N)(=O)=O)cc1 | 0.15 | -7.7% | i
CCOC(=O)C1CCN(Cc2ccc(OC)cc2OC)CC1 | -0.21 | 1.7% | i

Structural class: those above containing a cyano group.
SMILES | WNV NS2B-NS3 inh | Hsc70 | MT1-MMP promoter
COC(=O)C1=C(CSc2nc3c(cc2C#N)CN(C)CC3)OC(N)=C(C#N)C1c1ccccc1F (stereo not given) | · | 3.7% | i
COC(=O)CN1C(=O)C2(C(C#N)=C(N)Oc3c2c(C)nn3-c2ccccc2)c2ccccc21 (stereo not given) | 0.09 | 0.6% | i
N#Cc1cccc(NC(=O)CCC2CCCC2)c1 | 0.43 | 5.5% | i
Cc1oc(C)c2c(=O)ccc3c(c12)OC(N)=C(C#N)C3c1ccccc1 (stereo not given) | -1 | -29% | i

Next results
SMILES | WNV NS2B-NS3 inh | Hsc70 | MT1-MMP promoter
CC(C)OCCCNC(=O)c1ccc(Br)cc1 | · | 2.2% | i
Cc1cc(C)nc(N2CCCC(C(=O)Nc3nnc(C)s3)C2)n1 (stereo not given) | 1.6 | -4.5% | i
Cc1ccc(-n2c(O)c(C=NC3CCS(=O)(=O)C3)c3ccccc3c2=O)cc1C (stereo not given) | · | -0.1% | i
COc1ccc(NCc2ccc(OC)c(OC)c2)cc1 | 0.63 | 1.2% | i
Cc1cccc2cc(CN(Cc3ccccc3)C(=O)N3CCOCC3)c3nnnn3c12 | · | -1.2% | i
CNC(=O)CSCCn1c(SCC(=O)NC)nc2ccccc2c1=O | -1.3 | 0.5% | i
CC(c1ccccc1)C1CC(=O)N(Cc2ccco2)C1=O (stereo not given) | 1.2 | 4.8% | i
C=C(C)COc1ccc(-c2n[nH]c(C)c2Oc2ccccc2OC)c(O)c1 | 0.34 | -3.7% | i
Cc1cc(-n2c(C)cc(C(=O)CSc3ccc4c(c3)OCCO4)c2C)no1 | -0.31 | 33% | i
O=C1Cc2cccc3cccc1c23 | · | -3.4% | i
CC(=O)Nc1c(C(=O)c2ccc(F)cc2)oc2ccccc12 | 1.3 | 2.5% | i
Cc1nnc(SCC(=O)N2CCN(Cc3ccccc3)CC2)s1 | 1.8 | -5.1% | i
Cc1c(C(=O)Nc2ccc(C(=O)O)cc2)cnn1C | -1 | -2.1% | i
O=S1(=O)CC(O)C(Nc2ccccc2Cl)C1 (stereo not given) | -0.03 | -3.6% | i
O=C(Nc1ccccc1)N(Cc1cccnc1)Cc1ccco1 | -1.1 | 2.7% | i
CCOC(=O)C(O)(C1C(=O)CC(C)(C)CC1=O)C(F)(F)F (stereo not given) | -1.4 | 2.8% | i
Cc1ccccc1-c1nnn(CC(=O)NCc2ccc3c(c2)OCO3)n1 | 1.2 | 2.5% | i
Cc1ccc(N2C(=O)C3C4C=CC(C4)C3C2=O)cc1 (stereo not given) | -1.3 | -5.8% | i
Cc1ccc(NC(=O)CN(C)S(=O)(=O)c2cnc[nH]2)cc1C | 0.55 | 0.9% | i
COc1cc2[nH]c3c(=O)n(CCN4CCCCC4)cnc3c2cc1OC | 0.04 | -3.2% | i
CCCCNC(=O)CCn1c(=O)c2ccccc2n(CC(=O)N2CC(C)CC(C)C2)c1=O (stereo not given) | 0.37 | 2.6% | i
O=C(c1csc2c1CCCC2)N1CCCCC1 | -1.7 | -3.8% | i
Cc1ccc(S(=O)(=O)N(CC(=O)O)Cc2ccccc2)cc1 | 0.94 | -1.6% | i
Cc1ccccc1-n1c(Cn2c(=O)sc3ccccc32)nnc1SC(C)C | 1.9 | 5.8% | i
C/C(=N\Nc1ccc(F)cc1F)c1ccc(F)cc1 | · | -5.9% | i
CC(C)(C)n1nnnc1C(c1ccc(C#N)cc1)N1CCCC2(CCCCC2)C1 (stereo not given) | -0.46 | -5.9% | i
COc1cc2c(cc1OC)-c1cc(NCc3ccccn3)nc(=O)n1CC2 | -0.99 | 12% | i
CCc1ccc(C2=Nn3c(nnc3-c3cccs3)SC2)cc1 | 1.4 | -1.2% | i
CC(=O)SC(C)CC(=O)NCc1ccccc1 (stereo not given) | · | 2.6% | i
CCCCCn1c(N2CCOCC2)nc2c1c(=O)n(CC(N)=O)c(=O)n2C | 1.2 | 0.3% | i
COc1ccc(C2C(C(=O)O)c3ccccc3C(=O)N2C)cc1Br (stereo not given) | 1.1 | 3.2% | i
CC1(C)CC(=O)c2cc(C(=O)NC3CCSC3=O)c(=O)n(-c3ccccc3)c2C1 (stereo not given) | -1.2 | -10% | i
COc1ccc(-n2c(N)c(C(=O)NCC3CCCO3)sc2=S)cc1 (stereo not given) | -0.59 | -2.4% | i
CC(C)(C)c1ccc(OCC(=O)Nc2ccc(-c3nc4cccnc4o3)cc2)cc1 | · | 0.7% | i
C/C(Cl)=C\Cn1c(NCCc2ccccc2)nc2c1c(=O)n(C)c(=O)n2C | 0.87 | 4.9% | i
CCOc1ccc(C2c3c(oc4cc(C)c(C)cc4c3=O)C(=O)N2CCCN(C)C)cc1OC (stereo not given) | 2 | -5.7% | i
Cc1cc(C)n(-c2ccc(C(=O)NCc3cccs3)cc2)n1 | 0.55 | -1.4% | i
Cc1ccc(S(=O)(=O)c2nc(-c3ccccc3)oc2NCCN2CCOCC2)cc1 | 0.67 | -3.3% | i
CC(=O)c1sc(Nc2ccccn2)nc1C | -0.8 | -1.0% | i
Cc1cc(C)n(-c2ncc(-c3ccccc3)nn2)n1 | -0.69 | 3.7% | i
O=S(=O)(c1ccc2nc(Cc3ccccc3)[nH]c2c1)N1CCOCC1 | -0.38 | -2.4% | i

A different layout for some results above:
Molecule	WNV NS2B-NS3 inh	Hsc70	MT1-MMP promoter
COc1cc2c(cc1OC)-c1cc(NCc3ccccn3)nc(=O)n1CC2	-0.99	12%	i
CCCCNC(=O)CCn1c(=O)c2ccccc2n(CC(=O)N2CC(C)CC(C)C2)c1=O (stereo not given)	0.37	2.6%	i
Cc1cc(C)n(-c2ncc(-c3ccccc3)nn2)n1	-0.69	3.7%	i
Cc1cc(C)n(-c2ccc(C(=O)NCc3cccs3)cc2)n1	0.55	-1.4%	i
